KSHV LANA nucl: inhibitors of KSHV LANA binding to nucleosomes; FITC-LANA1-23 / chicken nucleosome fluorescence polarization; stronger effect = lower value; z-score (test concentration not listed); 51,000 compounds, 0.3% hits; AID 720717;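 active = both repeat wells score below -2 in polarization z-score versus plate sample wells, excluding overly bright wells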;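 also: 100 nL library stock added to about 30 µL; numbers are from one replicate; some results filed as inactive read as strong as hits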
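Assay system: FITC-LANA peptide and chicken nucleosomes; input: 240 nM purified chicken nucleosomes (480 nM peptide binding sites), final; also added: 50 nM FITC-LANA1-23 probe; medium: TEN-BT buffer, pH 7.5; doses: pin-transferred compound, 100 nL; times: 10–45 min, room temperature; technique: fluorescence polarization; replication: duplicates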
Ab BasE inh: BasE siderophore biosynthesis inhibition; 84,000 compounds, 0.1% hits; inhibition, % (test concentration not listed); purified BasE, fluorescence polarization binding displacement;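 active = both replicates above 25% with normal brightness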;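 also: 0% = negative plate control signal and 100% = positive plate control signal; stock transfer was 100 nL into about 30 µL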
Starred values were filed as active, the others as inactive; . = not tested or not shown; & = joins results of further samples. These rows are one share of the data; rates above refer to the full screens.

SMILES	KSHV LANA nucl	Ab BasE inh
Cn1cc(C(=O)NCCN2CCN(Cc3ccccc3)CC2)c2c3ccccc3n(C)c2c1=O	-0.71	-0.6
Cc1ccc(-n2cnc3cc(NCc4cccs4)ccc32)cc1	-0.2	3.9
Cc1cc(C)n(CCCC(=O)O)n1	1.9	0.0
O=C(Cn1c(=O)c2cccn2c2ccc(F)cc21)N1CCc2ccccc21	0.39	0.9
CCN1C(=O)C[C@@H](C(=O)O)[C@@H]1c1ccc(OC)cc1OC	-1.4	.
CC(=O)Nc1cc2c(nc1C)nc(C)n2Cc1ccc(Br)cc1	0.25	-5.1
COc1ccc(NC(=O)C(C)Sc2nc(N)cc(=O)[nH]2)cc1 (configuration not stated)	-0.017	1.4
O=C(c1c[nH]c2ccccc12)C(Sc1nnc(C2CC2)o1)c1ccccc1 (configuration not stated)	.	2.2
NC(=O)Cn1c(CN2CCCC2c2nc3ccccc3s2)nc2ccccc2c1=O (configuration not stated)	.	-3.5
CC(C)c1ccccc1NC(=O)c1cc2ccccc2oc1=O	.	2.7
COc1ccccc1OC(C)C(=O)NCc1ccccc1 (configuration not stated)	-0.011	-0.2
Cc1c(C(=O)CSc2n[nH]c(=O)n2Cc2ccco2)sc2ccc(Cl)cc12	0.29	0.4
Cc1ccc(-n2nnnc2-c2c[nH]c3cc(Cl)ccc23)cc1	-0.3	-0.1
Cc1ccc(Cn2ccsc2=NC(=O)CSc2nnc(-c3cccnc3)n2N)cc1	.	0.7
Cc1cc(C(=O)Nc2ccc3nc(C)sc3c2)c(C)o1	.	-7.3
COc1cccc(CC(=O)Nc2nccs2)c1	.	0.1
CN(CC(=O)N1CCc2ccccc2C1)S(=O)(=O)c1cnc[nH]1	-0.73	0.0
O=C(Nc1cnn(Cc2ccc(Cl)cc2)c1)c1ccccc1	0.27	0.6
C/[N+]([O-])=C\C1C(=O)CCCC1=O	-0.92	.
COC(=O)C1C(C(C)C)N(c2ccccc2)OC1(C)O (configuration not stated)	-0.48	1.6
CC(=O)OCC(=O)[C@@]1(O)CCC2C3CCC4=CC(=O)CC[C@]4(C)C3[C@@H](O)C[C@@]21C (some centres not stated)	0.044&0.26	0.8
CCCN(CC(=O)Nc1ccccc1C)C(=O)c1cc(=O)[nH]c2ccccc12	.	-0.2
Cc1ccc(NC(=O)/C(CN(C)C)=N\O)cc1	.	0.7
O=C(NCc1ccccc1)c1nnc(-c2ccc3c(c2)OCO3)o1	1.4	-1.5
O=C(Nc1ccccc1)OCC#Cc1ccc(-c2ccccn2)s1	.	1.3

Quoted at random: 7 entries already listed
SMILES	KSHV LANA nucl	Ab BasE inh
NC(=O)Cn1c(CN2CCCC2c2nc3ccccc3s2)nc2ccccc2c1=O (configuration not stated)	.	-3.5
CCCN(CC(=O)Nc1ccccc1C)C(=O)c1cc(=O)[nH]c2ccccc12	.	-0.2
O=C(Nc1ccccc1)OCC#Cc1ccc(-c2ccccn2)s1	.	1.3
COc1ccccc1OC(C)C(=O)NCc1ccccc1 (configuration not stated)	-0.011	-0.2
Cc1ccc(NC(=O)/C(CN(C)C)=N\O)cc1	.	0.7
Cc1cc(C(=O)Nc2ccc3nc(C)sc3c2)c(C)o1	.	-7.3
COc1ccc(NC(=O)C(C)Sc2nc(N)cc(=O)[nH]2)cc1 (configuration not stated)	-0.017	1.4

Remaining list, next part.
SMILES	KSHV LANA nucl	Ab BasE inh
CC1(C)Cc2c(sc(/N=C/N3CCCC3)c2C#N)C(C)(C)N1	2.5	-4.5
CCOC(=O)C1CCN(CC(=O)c2ccc(OC)cc2)CC1	0.17	.
Cc1nnc(SCC(=O)Nc2ccc3[nH]c(=O)[nH]c3c2)n1-c1ccccc1	.	1.6
NC(=S)c1ccccc1N	-0.69	0.7
COc1cc(C=Nc2ccc(Cl)cc2)ccc1OC(=O)/C=C/c1cccs1	.	2.1
Cc1oc(C2CC2)cc1C(=O)O	-0.77	2.0
O=C(OCn1nnc2ccccc2c1=O)c1cccc(S(=O)(=O)N2CCCCC2)c1	.	0.6
CCCn1c(NCc2ccc(Cl)cc2)nc2ccccc21	-0.83	1.4
COc1cc(C2CC(=O)n3nc(-c4ccccc4)nc3S2)cc(OC)c1OC (configuration not stated)	-0.94	1.4
c1nc(NCCN2CCOCC2)c2ccsc2n1	.	3.1
Oc1ccc(NCc2ccc(Br)cc2)cc1	-0.61	22
O=C(OCc1cc(=O)oc2cc(O)ccc12)c1cccnc1Cl	.	0.0
N#Cc1ccc(-c2cccnc2)n(CC(=O)N2CC(=O)Nc3ccccc32)c1=O	0.55	-0.9
CCOC(=O)c1cnc2cc(Cl)c(F)cc2c1N1CC(C)OC(C)C1 (configuration not stated)	.	5.6
O=C(O)CC(C(=O)O)C1SC(=O)NC1=O (configuration not stated)	.	-2.3
COc1ccc(/C=C2\SC(=O)N(C)C2=O)c2ccccc12	-0.35	0.1
COC(=O)c1cccc(NC(=O)Cc2cccs2)c1C	0.56	3.4
O=C(c1cccnc1Nc1cccc(Cl)c1)N1CCCCC1	-0.17	-1.1
CCCn1nnnc1NC(=S)NC(=O)c1cc2ccccc2o1	0.68	-2.8
Oc1ccc(-c2nnc(SCC3CCCCC3)o2)cc1	-0.86	0.2
COCC(C)NC(=S)Nc1ccc(F)cc1 (configuration not stated)	.	0.7
O=c1cnnc(NC2CCCCC2)[nH]1	1.3	-0.1
CC1(C)CC(=O)C(C=NC23CC4CC(CC(C4)C2)C3)=C(O)C1	1.4	0.9
CN(C)c1cc(NCCN2CCCCC2)c2c3c(onc13)-c1ccccc1C2=O	1.9	12
CC1=C(C(=O)OC(C)C)C(c2sccc2C)NC(=O)N1 (configuration not stated)	1.1	-5.5
Later entries.
SMILES	KSHV LANA nucl	Ab BasE inh
O=C(COc1ccc(Cl)cc1)N=Nc1c(O)n(CN2CCCCCC2)c2ccccc12	-0.42	0.6
CN(C)CCNC(=O)c1cccc(S(=O)(=O)Nc2ccccc2Cl)c1	.	-1.8
Cc1c(C(=O)N2CCC(C(N)=O)CC2)oc2ccc(Br)cc12	.	0.8
Cn1c(=O)n(C)c2cc(CN)ccc21	.	-0.8
CCC(C)Sc1nc2ccccc2c(=O)[nH]1 (configuration not stated)	.	-1.2
CC(CCc1ccccc1)NC(=O)Cc1nnc(-c2ccc(Br)cc2)o1 (configuration not stated)	0.67	-2.8
S=C(NNc1ccc(Cl)nn1)NC1CC2CCC1C2 (configuration not stated)	.	-1.3
O=C1c2ccccc2C(=O)c2c1oc1c3c(ccc21)OCN(C1CCS(=O)(=O)C1)C3 (configuration not stated)	.	3.7
COc1ccc(NC(=O)c2cc3ccc(O)cc3o/c2=N\O)cc1	0.93	0.0
Cc1cc(C)cc(OCC(=O)NCc2ccc3c(c2)OCO3)c1	0.18	1.6
CCOC(=O)N1CCN(S(=O)(=O)N2CCCC(C(=O)NCCC(C)C)C2)CC1 (configuration not stated)	-0.25	1.0
O=C(Cc1csc(-c2cccs2)n1)Oc1ccc2c(c1)CCC2	.	4.9
COc1cccc(CC(=O)N(Cc2ccc3c(c2)OCO3)C2CCCC2)c1	.	-0.7
O=S(=O)(NCc1cccs1)c1ccc(Br)cc1	.	-1.1
COc1ccc(-c2nnc(SCC(=O)NC(C)(C)C)n2C(C)C)cc1	.	0.5
O=C(NCc1nc(-c2ccc(C(F)(F)F)cc2)no1)c1ccccc1C(F)(F)F	-0.51	-0.1
CCSc1nnc2[nH]c(=O)c(C)c(C)n12	0.2	-0.8
N#CCCNCc1ccco1	.	2.3
CC1=NOC(=O)/C1=C/c1ccc(N2CCOCC2)cc1	.	0.3
COc1cc(S(=O)(=O)N(CC(=O)Nc2c(C)cccc2C)CC2CCCO2)ccc1-n1cnnn1 (configuration not stated)	-0.42	-1.7
COC(=O)C1=C(C)N(Cc2ccccc2)C(=O)NC1c1ccccc1 (configuration not stated)	0.41	2.5
CC(C)(C)OC(=O)N1CCC(CNC(=O)c2ccno2)CC1	.	1.9
Cc1sc2ncnc(Sc3ncnc4sccc34)c2c1C	.	1.1
O=C1C2(c3ccccc3)CN(CCCO)CC1(c1ccccc1)CN(CCCO)C2	.	-1.1
NC(=O)C1CCN(CC(O)COc2ccc3c(c2)OCO3)CC1 (configuration not stated)	.	0.1
More records follow:
SMILES	KSHV LANA nucl	Ab BasE inh
N#Cc1cc(Cl)c2c(c1)OCCO2	.	1.0
Cc1cccc(NC(=S)N2CCOC2c2ccsc2)c1 (configuration not stated)	.	1.3
Cc1cc(C)c(C(=O)COC(=O)C2=NNC(=O)CC2)c(C)c1	.	-0.4
CCOc1ccccc1N1CCN(CC(=O)Nc2ccc3c(c2)OC(F)(F)O3)CC1	.	0.1
CCc1ccc2c(c1)C(NC(C)=O)C(=O)N2C (configuration not stated)	.	1.0
O=C(Cn1ncc2c3ccccc3n(Cc3ccccc3F)c2c1=O)NC1CC1	0.67	2.4
Cc1cc2ccccn2c1C(=O)c1ccco1	.	-0.1
CCOC(=O)c1ccc(NC(=O)Cn2ncc3ccccc32)cc1	-0.15	3.6
COc1ccc(CN2C(=O)C(O)(CC(=O)c3ccc4c(c3)OCO4)c3ccccc32)cc1OC (configuration not stated)	0.012	1.0
Cc1cc(S(=O)(=O)N2CCC(NC(=O)Cc3ccccc3)CC2)c(Cl)cc1Cl	.	2.0
COc1ccc(C(=O)OCc2nnc(-c3ccccc3)o2)cc1S(=O)(=O)Nc1ccc(C)cc1	.	-3.2
Cc1ccn2c(=O)cc(CSc3nnc(-c4cccs4)n3C3CC3)nc2c1	.	-2.8
COc1ccc(C2C(C(=O)NCc3ccccn3)c3cc(OC)c(OC)cc3C(=O)N2C)cc1OC (configuration not stated)	0.18	-0.1
O=C(O)COc1ccccc1/C=N/NC(=O)C1CC1	.	2.5
COc1ccc(N2CCN(C(=O)c3sc4ncn(CC(=O)N5CCCCC5)c(=O)c4c3C)CC2)cc1	-0.54	0.5
O=C(Nc1ccc2c(c1)OCCO2)c1ccc2nccnc2c1	.	-3.1
Cc1ccc(C)n1-c1ccc(NC(=O)c2ccccc2)cc1	-0.097	-1.8
CCOC(=O)c1ccc2c(c1)c(C)c(C)n2Cc1ccccc1	.	1.6
C[N+](C)(CCCOc1ccccc1)c1ccccc1	0.061	0.4
O=C(Nc1ccc(-c2cc3ccccc3o2)cc1)C1CC1	0.87	1.0
CCOC(=O)N1CCN(C(=O)c2ccc(NS(=O)(=O)c3ccccc3)cc2)CC1	-1.1	0.9
CC(C)=CC(=O)CC(O)(c1ccccc1)c1ccccc1	.	2.4
O=C1C=CC(=O)N1c1cccc(Cl)c1	0.39	1.6
O=C(NCc1ccco1)C1C2C3CCC(C3)C12 (configuration not stated)	0.27	-2.6
COC(=O)c1cc(=O)n2ccccc2c1C#N	.	1.0

3 of the entries above in order of their number in KSHV LANA nucl, lowest first:
SMILES,KSHV LANA nucl
CCOC(=O)c1ccc(NC(=O)Cn2ncc3ccccc32)cc1,-0.15
Cc1ccc(C)n1-c1ccc(NC(=O)c2ccccc2)cc1,-0.097
COc1ccc(C2C(C(=O)NCc3ccccn3)c3cc(OC)c(OC)cc3C(=O)N2C)cc1OC (configuration not stated),0.18

More results
SMILES	KSHV LANA nucl	Ab BasE inh
CCc1cccc(NC(=O)CCCCCC2NC(=O)NC2C)c1 (configuration not stated)	-1.1	-0.1
O=C(c1ccc2c(c1)OCO2)N1CCCCCCC1	.	2.4
Cn1cc(C#N)c2ccccc21	.	1.2
O=C(c1ccc(Cl)cc1)N1CCC(c2nc(-c3ccc(F)cc3)no2)CC1	-0.74	0.8
Cc1ccc2nc(Nc3cccc(O)c3)c3nncn3c2c1	0.95	1.2
CCc1ccc(-n2nnc(S(=O)(=O)c3ccc(CC)cc3)c2N)cc1	-0.28	-2.5
COc1ccccc1/C=C/C1C(C(=O)OCC(C)C)=C(C)N=C2SCCC(=O)N21 (configuration not stated)	.	3.2
O=C(Cn1cc(C(F)(F)F)cc(Cl)c1=O)Nc1ncccn1	.	-3.2
CCOC(=O)c1c(C)oc2c1c(CN1CC(C)OC(C)C1)c(O)c1ccccc12 (configuration not stated)	1.3	-0.9
CN(C)C(=O)CSc1nc(SCC(=O)N(C)C)n(-c2ccccc2)n1	-1.3	-0.3
CCOC(=O)c1cnc(Cc2ccccc2)[nH]c1=O	-0.7	0.5
O=C1CCC(=O)c2oc3ccccc3c2N1	-0.63	2.0
CCNc1nc(NCC)n2c(SCC(=O)Nc3ccc(CC)cc3)nnc2n1	1.6	-1.2
C[N+](C)(CCOc1ccccc1)Cc1ccccc1 (tested in a mixture with another compound)	.	3.9
Cc1cc(NC(=O)c2ccco2)sc1C	.	2.4
CSc1sc(C(=O)Sc2ccccc2)cc1S(=O)(=O)C(C)C	.	2.4
CN(C)S(=O)(=O)c1ccc(C(=O)OCC(=O)NCc2ccccc2)cc1	.	-0.9
O=C(N1CCOCC1)C1(c2ccc(Cl)cc2)CCCC1	-1.5	-2.1
CCCCNc1cc(C)nc(CCC)n1	-0.29	0.1
Cc1cc(Oc2ccccc2)nc(Oc2ccc(OCC(N)=O)nn2)n1	-0.69	1.6
Cc1[nH]c2ccccc2c1CN1CCC(Cc2ccccc2)CC1	.	0.8
CCN(Cc1ccccc1)C(=O)CCN1C(=O)/C(=C\c2ccco2)SC1=S	0.83	-0.1
CCOC(=O)c1ccc(Nc2cc(C)nc(C)c2C(=O)OCC)cc1	.	0.6
CN(C)c1ccc(/C=C/C(O)=C2/C(=O)N(C)C3(C)CC2c2ccccc2O3)cc1 (configuration not stated)	0.66	-3.8
Cc1csc(NC(=O)CC(C)(C)C)n1	.	2.0
O=C(/C=N/O)Nc1ccc(C(=O)O)cc1	.	2.9

Structural class: the entries above containing a CF3 group.
SMILES	KSHV LANA nucl	Ab BasE inh
O=C(NCc1nc(-c2ccc(C(F)(F)F)cc2)no1)c1ccccc1C(F)(F)F	-0.51	-0.1
O=C(Cn1cc(C(F)(F)F)cc(Cl)c1=O)Nc1ncccn1	.	-3.2
